D2 PAM – human D2 receptor positive allosteric modulation | P14416 | DiscoveRx D2 beta-arrestin cells, luminescence, 90 min; 100% = 57 uM dopamine signal | potentiation, % (concentration not given with the values) | 360,000 compounds, 0.23% hits; active = potentiation of 50% or more; inconclusive = 30% to 50%; inactive = 30% or less;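 further: tested on top of an EC20 dose of dopamine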
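PathHunter D2 cells, attached overnight at 37 deg C, received compound in DMSO plus dopamine at EC20 (50 nM final) for 90 min at 37 deg C. Beta-arrestin recruitment was read as luminescence after 1 h with detection reagent at ambient temperature.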
CtBP-E1A blk – inhibitors of CtBP/E1A interaction | activity change, % (test concentration not listed) | AlphaScreen GST-E1A/His-CtBP binding, 1536-well; hits give low values; control for the full effect not named in the record | 340,000 compounds, 0.49% hits; in the data active means activity change below about -65%; inconclusive means about -30% to -65%; inactive means above about -30%; further: on the % scale 0 is the no-effect control and ±100 the full control effect
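Homogeneous bead-based format: GST-tagged E1A captured on glutathione donor beads, His-tagged CtBP on nickel acceptor beads; compounds precede bead addition by 2 h at 37 °C.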
TRPML1 inh – blocks the human TRPML1 channel; 390,000 compounds, 0.02% hits; Q9GZU1; AID 624415; activity change, negative = inhibition, % (test concentration not listed); TRPML1-inducible cells, Ca2+ dye fluorescence, FDSS; hits give low values; inhibition of EC80 agonist-evoked calcium signal; in the data active means activity change below about -50%; inconclusive means about -30% to -50%; inactive means above about -30%;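 further: stimulus is agonist 54-4 at its EC80 concentration; on the % scale 0 is the no-effect control and ±100 the full control effect; compound concentration not given in the record; the text of the record puts the active cut at -80%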
Target sequence (Q9GZU1 whole entry, looked up): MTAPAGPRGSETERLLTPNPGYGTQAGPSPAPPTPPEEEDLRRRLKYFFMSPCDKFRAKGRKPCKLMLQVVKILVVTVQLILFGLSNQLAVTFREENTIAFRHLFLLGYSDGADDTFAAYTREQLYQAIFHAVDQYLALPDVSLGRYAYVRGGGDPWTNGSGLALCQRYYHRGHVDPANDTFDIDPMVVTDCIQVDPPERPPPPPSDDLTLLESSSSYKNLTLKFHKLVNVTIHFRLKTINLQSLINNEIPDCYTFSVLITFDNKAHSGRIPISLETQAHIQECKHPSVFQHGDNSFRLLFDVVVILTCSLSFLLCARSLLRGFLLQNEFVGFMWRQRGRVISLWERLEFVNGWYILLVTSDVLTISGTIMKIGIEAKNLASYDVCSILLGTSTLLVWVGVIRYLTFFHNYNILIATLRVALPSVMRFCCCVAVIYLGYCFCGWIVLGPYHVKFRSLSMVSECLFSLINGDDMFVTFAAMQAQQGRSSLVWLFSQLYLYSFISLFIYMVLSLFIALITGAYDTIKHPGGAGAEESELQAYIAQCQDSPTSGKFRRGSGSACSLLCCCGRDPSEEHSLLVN
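TRPML1-DL cells, Tet-induced overnight (~16 h, 37 °C) at 1,500 cells/well, were loaded with Ca8 no-wash dye plus quencher for 45-90 min at room temperature. Compounds were pinned during FDSS kinetic reading; agonist 54-4 at EC80 (4 uM final) then added.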
TRPML1 agonist – human mucolipin-1 channel agonism | Q9GZU1 | TRPML1-expressing cells, Ca2+ dye fluorescence, FDSS; host cell line not named in the record; reference of the full effect not given here | activation, % (test concentration not listed) | 410,000 compounds, 0.12% hits | AID 624414; in the data active = activation above about 50%; inconclusive = about 30% to 50%; inactive = below about 30%; further: 0% is about no effect; the text of the record puts the active cut at 80%
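Calcium fluorescence on an FDSS kinetic reader gave the read-out. Tet-induced TRPML1-DL cells were plated overnight, dye-loaded (Ca8 with quencher, 45-90 min, room temperature, dark), then read 110 s after compound addition, and again 110 s after 4uM final 54-4 (EC80).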
Six1-Eya2 inh – blocks human Six1 binding to Eya2 | activity change, % (concentration not given with the values) | Q15475+O00167 | AID 651725 | 360,000 compounds, 0.56% hits | AlphaScreen GST-Six1/His-Eya2 binding, biochemical; hits give low values; control for the full effect not named in the record; in the data active = activity change below about -65%; inconclusive = about -30% to -65%; inactive = above about -30%; further: on the % scale 0 is the no-effect control and ±100 the full control effect
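Compounds are tested against tagged Six1 and Eya2 proteins bridged by glutathione donor and nickel acceptor beads; after a one-hour incubation at 37 °C without light, AlphaScreen emission is recorded.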
TRPV1 PAM – enhances activation of the human vanilloid receptor TRPV1 | TRPV1-expressing cells, Fluo-8 calcium influx, capsaicin EC20 potentiation; host cell line not named in the record; control for the full effect not named in the record | potentiation, % at 8.33 µM | 320,000 compounds, 0.02% hits | AID 540277; active means potentiation above 80%; inconclusive means 30% to 80%; inactive means below 30%; further: 0% is about no effect
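Fluo-8 calcium influx in TRPV1-expressing cells, kinetic read (ex 480/em 520 nm). Compound added and read 3 min for agonist activity, followed by capsaicin at EC20 final and 2 min further read for enhancement.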
* hit, by the source's call; · = not tested or not shown; & = joins results of further samples.

Compound | D2 PAM | CtBP-E1A blk | TRPML1 inh | TRPML1 agonist | Six1-Eya2 inh | TRPV1 PAM
CN1CCN(CCC(=O)N2c3ccccc3Sc3ccc(C(F)(F)F)cc32)CC1 | -25 | 13 | -2 | 0.4 | -4 | 8
CN(C)CCOC(C)(c1ccccc1)c1ccccn1 (stereo not given) | -12 | -3 | -15 | -0.5 | 3 | 2&0
CC(=O)NC(Cc1ccccc1)C(=O)O (stereo not given) | -23 | 6 | · | · | 2 | -8
Cc1c(NC(=O)c2cccnc2)c(=O)n(-c2ccccc2)n1C | 4 | 0 | 2 | -0.6 | 2 | -5
CCCCCCO | 1 | 10 | 2 | 0.1 | 1 | 3
CC(=O)Nc1ccc(C(=O)O)cc1 | -23 | 3 | · | · | 1 | ·
CCOC(=O)c1ccc(N)cc1 | -7 | 5 | -6 | -0.7 | 7 | 5
O=C(CCN1CCC(c2ccccc2)C1)c1ccc2c(c1)OCCO2 (stereo not given) | -38 | -12 | 8 | 8.3 | -1 | -9
CCOc1ccc(C(=O)OCCN(CC)CC)cc1 | -25 | 10 | -3 | 0.5 | -2 | 16
O=C(NCCc1c[nH]c2ccccc12)c1cccnc1 | -9 | 6 | 39 | 0.1 | 0 | -2
COc1ccc(C(=O)CC(=O)c2ccc(C(C)(C)C)cc2)cc1 | -7 | 1 | -2 | 0.3 | -14 | ·
O=C(c1ccc(F)cc1)C1CCN(CCn2c(=O)[nH]c3ccccc3c2=O)CC1 | -37&-34 | -10&6 | -4&-12 | -0.1&-0.3 | -16&2 | -1

3 entries out of the list, arranged by molar mass, largest number first:
Compound | D2 PAM | CtBP-E1A blk | TRPML1 inh | TRPML1 agonist | Six1-Eya2 inh | TRPV1 PAM
Cc1c(NC(=O)c2cccnc2)c(=O)n(-c2ccccc2)n1C | 4 | 0 | 2 | -0.6 | 2 | -5
CCOc1ccc(C(=O)OCCN(CC)CC)cc1 | -25 | 10 | -3 | 0.5 | -2 | 16
CC(=O)Nc1ccc(C(=O)O)cc1 | -23 | 3 | · | · | 1 | ·

More results:
Compound | D2 PAM | CtBP-E1A blk | TRPML1 inh | TRPML1 agonist | Six1-Eya2 inh | TRPV1 PAM
CCC(C)n1ncn(-c2ccc(N3CCN(c4ccc(OCC5COC(Cn6cncn6)(c6ccc(Cl)cc6Cl)O5)cc4)CC3)cc2)c1=O (stereo not given) | -6 | 4 | 24 | -0.6 | -9 | 1&2
CN1CCN(C(c2ccccc2)c2ccccc2)CC1 | -36 | -16 | -1 | -0.6 | 3 | -25
CC12CCC(CC1)C(C)(C)O2 | -21 | 34 | · | · | 22 | ·
COc1ccc(C(=O)NCc2ccc(OCCN(C)C)cc2)cc1OC | -37 | -6 | -9 | -0.3 | 1 | ·
c1ccc(CN(CC2=NCCN2)c2ccccc2)cc1 | -17&-2 | 2&-2 | -2&5 | 0.4&-0.8 | 2&-7 | 6&-7
CCOc1ccccc1C(N)=O | 0 | 1 | 0 | -0.8 | 0 | ·
OC(C#CCN1CCCC1)(c1ccccc1)c1ccccc1 | -38 | -4 | 23 | -0.1 | -1 | -5
C1CCC(C(CC2CCCCN2)C2CCCCC2)CC1 (stereo not given) | -20&-30 | -14&-2 | -1&8 | 1.6&1.6 | 3&-1 | -7&7
C[C@]12CCC(=O)C=C1CC[C@@H]1[C@@H]2CC[C@@]2(C)[C@H]1CC[C@]2(O)C(=O)CO | -6 | 24 | 0 | 0.8 | 25 | -5
Cn1c(=O)c2c(ncn2CC2OCCO2)n(C)c1=O | -6 | · | 18 | 0.8 | -7 | -2
CC(=O)c1ccc(S(=O)(=O)NC(=O)NC2CCCCC2)cc1 | 8 | -23 | 1 | 0.4 | 6 | 2
COc1ccccc1N1CCN(CCCNc2cc(=O)n(C)c(=O)n2C)CC1 | -15 | 3 | -1 | -0.3 | -3 | 4
OCCN1CCN(CCCN2c3ccccc3Sc3ccc(Cl)cc32)CC1 | -30 | -15 | 9 | 0.8 | -23 | -9
COc1cc2c(c(OC)c1OC)-c1c(cc3c(c1OC)OCO3)[C@@H](OC(C)=O)[C@H](C)[C@H](C)C2 | -8 | -4 | 2 | 2.3 | -3 | -25
NC(=O)c1cn(Cc2c(F)cccc2F)nn1 | -5 | 3 | 0 | -0.3 | -3 | 2
CCN(CC)CCOC(=O)C1(c2ccccc2)CCCC1 | -20 | 13 | -1 | 0.0 | -1 | 5
O=S(=O)(c1cccc2cnccc12)N1CCCNCC1 | -9 | 4 | -3 | 0.4&0.1 | -1 | -5
CC(C(=O)O)c1ccc(C(=O)c2cccs2)cc1 (stereo not given) | 2 | 5 | 5 | -0.4 | -3 | -5
CC[N+](C)(CC)CCOC(=O)C(O)(c1ccccc1)C1CCCCC1 (stereo not given) | 8 | 5 | 10 | -0.4 | 2 | 4
O=C(CCNNC(=O)c1ccncc1)NCc1ccccc1 | -1 | -5 | -2 | -0.6 | 6 | -8
NC(=O)c1cccc(-c2cc(Nc3ccc(OC(F)(F)F)cc3)ncn2)c1 | -11 | 0 | 4 | 0.5 | 2 | -1
CCOc1ccc(NC(=O)Cn2cc(C(=O)c3ccco3)c3ccccc32)cc1 | -7 | -9 | -5&17 | 0.6&0.6 | -3 | 11
Oc1ccc(/C=C/c2cc(O)cc(O)c2)cc1 | -9 | -28 | -6 | 1.0 | -25 | 1
CC(COc1ccccc1)NC(C)C(O)c1ccc(O)cc1 (stereo not given) | -21 | 4 | -15 | -0.4 | 6 | -1
CN1CCOC(c2ccccc2)c2ccccc2C1 (stereo not given) | -23 | 10 | 20 | -0.1 | 6 | -2
Cc1nc2ccccn2c(=O)c1CCN1CCC(C(=O)c2ccc(F)cc2)CC1 | -25 | -8 | 13 | -0.9 | -5 | 11
COC(=O)c1ccc(O)cc1 | 0 | -2 | 11 | -1.1 | 0 | -7
CC(=O)OCC1=C[C@@H]2OC(=O)C3=CO[C@@H](O[C@@H]4O[C@H](CO)[C@@H](O)[C@H](O)[C@H]4O)[C@H]1[C@@H]32 | -5 | 5 | -6 | -0.7 | 12 | -2
CC1(C)Cc2c(sc(NC(=S)NC(=O)c3ccccc3)c2C(=O)O)CO1 | -5 | 2 | -15 | 0.2 | -11 | 12
c1ccc(CC2=NCCN2)cc1 | -11 | 7 | 3 | 0.1 | 0 | -5
C=CC1=C(C(=O)O)N2C(=O)[C@@H](NC(=O)/C(=N\O)c3csc(N)n3)[C@H]2SC1 (stereo in doubt) | -7 | -85* | -14 | 0.2 | -90* | ·
CC(=O)c1ccc2c(c1)N(CCCN(C)C)c1ccccc1S2 | -23 | -1 | -4 | -0.9 | -3 | ·
Cc1cc(-c2ccccc2)nnc1NCCN1CCOCC1 | -3 | -3 | 1 | -0.5 | -2 | 1
CCCNC(C)C(=O)Nc1c(C)csc1C(=O)OC (stereo not given) | 8 | -1 | 11 | -0.9 | -1 | -13

Laid out differently: results already given
Values in the order: D2 PAM | CtBP-E1A blk | TRPML1 inh | TRPML1 agonist | Six1-Eya2 inh | TRPV1 PAM
CN1CCN(CCC(=O)N2c3ccccc3Sc3ccc(C(F)(F)F)cc32)CC1
→ -25 | 13 | -2 | 0.4 | -4 | 8
CN(C)CCOC(C)(c1ccccc1)c1ccccn1 (stereo not given)
→ -12 | -3 | -15 | -0.5 | 3 | 2&0
CC(=O)NC(Cc1ccccc1)C(=O)O (stereo not given)
→ -23 | 6 | · | · | 2 | -8
Cc1c(NC(=O)c2cccnc2)c(=O)n(-c2ccccc2)n1C
→ 4 | 0 | 2 | -0.6 | 2 | -5
CCCCCCO
→ 1 | 10 | 2 | 0.1 | 1 | 3
CC(=O)Nc1ccc(C(=O)O)cc1
→ -23 | 3 | · | · | 1 | ·
CCOC(=O)c1ccc(N)cc1
→ -7 | 5 | -6 | -0.7 | 7 | 5
O=C(CCN1CCC(c2ccccc2)C1)c1ccc2c(c1)OCCO2 (stereo not given)
→ -38 | -12 | 8 | 8.3 | -1 | -9
CCOc1ccc(C(=O)OCCN(CC)CC)cc1
→ -25 | 10 | -3 | 0.5 | -2 | 16
O=C(NCCc1c[nH]c2ccccc12)c1cccnc1
→ -9 | 6 | 39 | 0.1 | 0 | -2
COc1ccc(C(=O)CC(=O)c2ccc(C(C)(C)C)cc2)cc1
→ -7 | 1 | -2 | 0.3 | -14 | ·
O=C(c1ccc(F)cc1)C1CCN(CCn2c(=O)[nH]c3ccccc3c2=O)CC1
→ -37&-34 | -10&6 | -4&-12 | -0.1&-0.3 | -16&2 | -1
CCC(C)n1ncn(-c2ccc(N3CCN(c4ccc(OCC5COC(Cn6cncn6)(c6ccc(Cl)cc6Cl)O5)cc4)CC3)cc2)c1=O (stereo not given)
→ -6 | 4 | 24 | -0.6 | -9 | 1&2
CN1CCN(C(c2ccccc2)c2ccccc2)CC1
→ -36 | -16 | -1 | -0.6 | 3 | -25
CC12CCC(CC1)C(C)(C)O2
→ -21 | 34 | · | · | 22 | ·
COc1ccc(C(=O)NCc2ccc(OCCN(C)C)cc2)cc1OC
→ -37 | -6 | -9 | -0.3 | 1 | ·
c1ccc(CN(CC2=NCCN2)c2ccccc2)cc1
→ -17&-2 | 2&-2 | -2&5 | 0.4&-0.8 | 2&-7 | 6&-7
CCOc1ccccc1C(N)=O
→ 0 | 1 | 0 | -0.8 | 0 | ·
OC(C#CCN1CCCC1)(c1ccccc1)c1ccccc1
→ -38 | -4 | 23 | -0.1 | -1 | -5

Source: PubChem (National Center for Advancing Translational Sciences (NCATS))

Some of the compounds tested. The share of hits here may be higher or lower than overall.
